Screening data (PubChem)
Mtb hypoxia inh – inhibitors of hypoxia-regulated fluorescent reporter in Mycobacterium tuberculosis; M. tuberculosis hypoxia-regulated fluorescent reporter, fluorescence; fluorescence inhibition, % (concentration not given with the values); 300,000 tested, 0.1% active;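 active means 35 to 45% if threefold the growth effect, above 45% if 1.5-fold the growth effect; inactive means the rest, general growth blockers included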;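 further: wells of about 50 µL received 100 nL stock; 0% = vehicle wells and 100% = reference inhibitor wells; whole bacteria with a GFP reporter of the hypoxia response; strong numbers were not always called active; many hits fall short of the cut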
Sa ugtP lethal – kills S. aureus RN4220 lacking UgtP; S. aureus RN4220 ugtP deletion, OD600 growth, 16 h; some inactives read as strong as hits; growth inhibition, % (test concentration not listed); 330,000 tested, 0.54% active; AID 1259309;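 active means z-score under -3 and OD600 up to 0.15 on both plates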;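 further: plate controls were untreated wells for no effect and antibiotic for full effect; wells of about 80 µL received 100 nL stock; the first replicate is given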
Sa RN4220 lethal – kills Staphylococcus aureus RN4220; S. aureus RN4220 growth, OD600, 16 h; inhibition, % (test concentration not listed); 330,000 tested, 0.33% active; AID 1259311;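 active means z-score of -3 or lower and OD600 up to 0.18 on both plates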;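 further: plate controls were untreated cells for no effect and reference antibiotic for full effect; stock transfer was 100 nL into about 80 µL; one replicate is shown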
BJeLR viability – kills HRASV12-expressing BJeLR cells | AID 1554 | inhibition, % (test concentration not listed) | BJeLR (HRASV12) viability, CellTiter-Glo ATP luminescence, 48 h; reference of the scale not given here | 300,000 tested, 0.17% active;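 active means replicate mean above 50%; inconclusive means above 50% but judged a plate artefact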;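 further: 50 nL library stock added to about 25 µL; numbers are from one replicate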
Bead autofluor – compound fluorescence in toxin protease inhibitor counterscreen; compound autofluorescence counterscreen, microsphere flow cytometry; active compounds read high; fluorescence intensity (concentration not given with the values); 360,000 tested, 3.1% active;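 active means at least 3 SD above the mean of all compounds, about 16000 in these data; inconclusive means too few beads counted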;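 further: 100 nL of 1 mM stock went into each well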
PrP 5UTR inh – inhibition of PrP 5' UTR reporter expression; cell-based PrP 5' UTR mRNA reporter, plate reader; inhibition, % (no concentration beside the values); AID 488862; 340,000 tested, 0.35% active;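 active means every replicate at 50% or more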;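 further: 0 = median of the neutral control wells; tested in H4 reporter cells; numbers are from one replicate; inactives centre near -14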
Mtb hypoxia inh growth – recorded beside Mtb hypoxia inh, whose call it bears; growth inhibition, %; measured here: M. tuberculosis growth (absorbance);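 0% = vehicle and 100% = reference antibiotic; read after six days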
* marks the source's active call; other numbers are inactive results; ? = inconclusive; . = no result given; & = joins results of further samples. Not a hit list. About 4% of those tested had a hit in this group.

SMILES	Mtb hypoxia inh	Mtb hypoxia inh growth	Sa ugtP lethal	Sa RN4220 lethal	BJeLR viability	Bead autofluor	PrP 5UTR inh
CC(CCc1ccccc1)=NNC(=O)CCc1ccccc1	5	4	-1	6.7	.	.	.
CC1CN(C(C)CO)C(=O)c2cc(NS(=O)(=O)c3ccccc3)ccc2OC1CN(C)S(=O)(=O)c1cccs1 (centres undefined)	-4	1	3	2.9	.	.	.
O=C(COC(=O)/C=C/c1cccc(Br)c1)NC1CCCC1	-9	-11	-9	-1.9	.	3720	-4
CCc1noc(C)c1C(=O)N1CCCC(C(=O)c2ccc(OC)c(F)c2)C1 (centres undefined)	-3	-7	13	4.3	16	2068	-7
CCn1c(SCc2ccc(Cl)cc2)nnc1-c1ccccc1	.	.	12	7.9	-6	4492	-23
CCOP(=O)(c1ccccc1)c1nc(-c2ccccc2Cl)oc1N1CCCCC1 (centres undefined)	12	9	-6	4.3	5	9907	-12
O=c1[nH]c(=S)n(-c2ccccc2F)c(O)c1C=NCc1ccco1	-7	-8	2	-0.9	10	8626	-1
COc1ccccc1N(C)S(=O)(=O)c1ccc(Cl)c(C(=O)OCc2c(C)noc2C)c1	8	0	1	8.8	2	4500	-12
O=C(O)C[C@H]1c2ccc(C(F)(F)F)cc2S(=O)(=O)N1Cc1ccccc1	.	.	.	.	-7	2937	-11
Cc1nn(Cc2ccccc2Cl)c(C)c1C(=O)NC1=NCCS1	.	.	2	2.1	2	2691	-13
CC[C@@]1(C(=O)OC)N[C@H](CN(C)C(=O)C2CCCCC2)[C@@H]2C(=O)N(C)C(=O)[C@@H]21	-3	2	-1	3.6	.	4137	-7
COc1ccc(Br)c2c1C(=O)CC2	6	-1	13	2.9	-8	3177	1
CC(C)(C(=O)O)n1cncn1	0	8	0	-1.7	10	4844	-30
Cn1ccnc1Sc1ccc(/C=N/NC(=O)c2ccccc2[N+](=O)[O-])cc1[N+](=O)[O-]	.	.	.	.	-21	8215	-4
CC1(C)CC(=O)C2=C(C1)OC(N)=C(C#N)C2c1cn(-c2ccccc2)nc1-c1ccc(F)cc1 (centres undefined)	-7	1	3	-0.2	-1	2211	-23
O=C(O)C(Cc1c[nH]c2ccccc12)N1C(=O)C2C3c4ccccc4C(c4ccccc43)C2C1=O (centres undefined)	7	5	7	2.7	3	4365	-3
COc1ccc(CCN2CCCn3c2nc2c3c(=O)n(C)c(=O)n2C)cc1OC	-4	2	1	1.0	15	2982	-13
Cn1ccnc1C(=O)C1CCCN(Cc2cn[nH]c2-c2ccc(-c3ccccc3)cc2)C1 (centres undefined)	.	.	.	.	4	5043	-34
CC(=O)N1CCCc2cc(S(=O)(=O)N3CCN(C4CCCCC4)CC3)ccc21	.	.	6	2.2	12	4598	-17
O=C(O)c1ccc(-c2ncc[nH]2)cc1	13	10	8	4.6	3	4022	-17
Cc1ccc(S(=O)(=O)C(C)C(=O)c2ccc3c(c2)OCCO3)cc1 (centres undefined)	8	10	5	7.6	-6	11145	-9
Cc1ccc(-c2nc3cccnc3s2)cc1NS(=O)(=O)c1cccs1	1	7	-10	-1.1	0	6664	-22
Cc1ccccc1C(C(=O)NCc1ccco1)N(CC1CCCO1)C(=O)Cn1nnc2ccccc21 (centres undefined)	.	.	1	2.4	-6	2239	-9
COc1cc(S(=O)(=O)NC2CCCCC2C)ccc1F (centres undefined)	11	-6	-1	1.8	3	5831	-12
Cc1cccc(Nc2nc(NCc3ccco3)nc(N3CCOCC3)n2)c1	4	-2	-12	3.6	6	?	-11
COc1ccc(Oc2coc3c(CN4CCOCC4)c(O)ccc3c2=O)cc1	2	4	-1	2.1	-4	3721	-11
CC(Oc1ccc(Cl)cc1Cl)c1ccnc2nc(N3CCOCC3)nn12 (centres undefined)	-3	7	3	6.7	2	2257	-27
Cc1ccc(OCCNc2cc(N3CCN(CCO)CC3)ccc2[N+](=O)[O-])cc1C	-2	-2	-5	0.0	3	2437	-11
Cc1ccc(S(=O)(=O)CC(=O)N2CCN(c3ccc(F)cc3)CC2)cc1	.	.	.	.	-6	4809	-15
CC1CN(C(C)CO)C(=O)Cc2cc(NC(=O)Nc3ccc4c(c3)OCO4)ccc2OC1CN(C)S(=O)(=O)c1cccs1 (centres undefined)	-21	12	-1	-0.9	.	.	.
CCOC(=O)C1=C(C)NC(C)=C(C(=O)OCC)C1C(=O)OCC(=O)NC(C)C	-9	-1	-3&1	2.8&-0.3	-6	3614&4011	1&-11
O=CNc1ccc2c(c1)Cc1cccc(NC=O)c1-2	-1	9	3	2.1	.	3802	-8
CCOC(=O)c1sc2ncnc(OC)c2c1C	.	.	2	4.6	2	4291	-1
COc1ccccc1N1CCN(C(=O)c2cc(-c3cccc(Cl)c3)on2)CC1	3	5	-5	2.9	-1	10777	-1
COc1ccc(N(CC(=O)NCCSc2ccc(C)cc2)S(=O)(=O)c2ccccc2)c(OC)c1	.	.	.	.	-14	4011	-9
Cc1ccc2c(c1)N(CC(=O)N1CCC(C)CC1)C(=O)c1cccnc1O2	-8	-5	-5	-4.5	8	4904	4
CCN1C(=O)NC(c2cccc(F)c2)C(C(=O)OC)=C1C (centres undefined)	8	16	3	6.6	.	.	.
CC(c1cc2ccccc2s1)N(O)C(N)=O (centres undefined)	-1	5	4	29	-2	.	.
CCOC(=O)C(NC(=O)NC1CCCCC1)(c1ccccc1)C(F)(F)F (centres undefined)	-8	-3	-3	4.4	10	10683	1
CC(NC(=O)COC(=O)c1ccc(N(C)C)cc1)c1ccccc1 (centres undefined)	-1	-6	-2	4.2	2	4670	-27
CCc1nnc(NC(=O)CSc2nnc3c4ccccc4n(C)c3n2)s1	3	-3	-5	-3.7	-6	2693	-11
CCC(=O)Nc1cccc2c1C(=O)N(C)C2=O	0	9	-7	-3.4	3	10080	-15
C=CCn1cc(-c2cccc(C(F)(F)F)c2)cc(C#N)c1=O	1	-5	-1	3.9	-4	3527	-7
O=[N+]([O-])c1ccc(NC(=S)N2CCN(S(=O)(=O)c3ccccc3)CC2)cc1	0	-3	48	-2.4	.	5042	-15
Cc1cnc(C(=O)N2CCCC(N3CCN(c4cccc(C(F)(F)F)c4)CC3)C2)cn1 (centres undefined)	-15	8	-1	1.2	1	5408	1
Cc1nc(=O)c(-c2ccccc2)c(C)n1CCCCCC(=O)O	9	4	7	5.8	-10	3192	-4
Cc1cc(C)nc(NCc2ccc(Cl)cc2)n1	3	-3	1	5.7	-2	.	0
CCc1cc2c(=O)[nH]c(COC)nc2s1	-2	-2	9	4.6	-3	1900	-29
Cc1ccc(C(C(=O)NC2CCCC2)N2CCc3ccccc32)cc1 (centres undefined)	3	-1	2	1.8	-2	5345	-4
O=C(CN1CCN(Cc2ccccc2Cl)CC1)N=Nc1c(O)[nH]c2ccccc12	-5	6	-15	1.2	-6	2237	-1
C/C(=N\OCC(=O)Nn1c(C)nc2ccccc2c1=O)c1cccs1	.	.	.	.	-7	4223	-39
O=C(NC1CCCCC1)c1ccc(-c2ccc(Cl)cc2)o1	19	16	-9	-2.3	0	4938	-63
CCOC(=O)CSc1nc(N)c(C#N)cc1C#N	3	-1	-2	3.2	-7	2103	-27
O=C(Nc1ccccc1)c1ccc(NCC2CCCO2)c([N+](=O)[O-])c1 (centres undefined)	3	6	5	6.4	-1	2625	-25
CCCc1nnc(SCC(=O)N2CCOCC2)n1CC1CCCO1 (centres undefined)	9	7	-1	12	0	3270	48
O=C(COC(=O)CCc1ccccc1)Nc1ccccc1OC(F)F	9	4	8	3.5	5	.	-20
CCC(C)/C(C)=N/NC(=O)c1ccc(CSc2nc3ccccc3s2)cc1 (centres undefined)	.	.	.	.	-11	7274	-16
CC(C)CN1C(=O)c2ccc(C(=O)Nc3ccc(OCC(=O)O)cc3)cc2C1=O	-8	-12	5	-1.1	-6	3709	-10
Cc1ccc(-c2nnc(SCC(=O)N/N=C/c3ccccc3C(=O)O)n2-c2ccc(C)cc2)cc1	.	.	.	.	2	4539	-18
COc1ccccc1NCCC(=O)OCC(=O)Nc1cccc(S(=O)(=O)N(C)C)c1	7	-1	7	3.2	.	4396	-20

(further entries)
SMILES	Mtb hypoxia inh	Mtb hypoxia inh growth	Sa ugtP lethal	Sa RN4220 lethal	BJeLR viability	Bead autofluor	PrP 5UTR inh
COc1ccc(CN2CCN(c3ncccn3)CC2)c(C)c1C	-5	-8	6	1.7	4	3192	0
CCCCn1c(O)c(C(=O)/C=C/c2c[nH]c3ccccc23)c(=O)[nH]c1=O	-3	8	-10	-2.4	-4	5602	-8
CCCCCN=Cc1c(C)[nH]n(-c2nc3ccccc3s2)c1=O	-1	10	1	6.3	53*	?	27
CC1(C2CC2)NC(=O)N(CC(=O)NCc2ccc(Cl)cc2Cl)C1=O (centres undefined)	-3	2	-5	-0.4	.	2853	-7
O=c1nccc(N/N=C/c2cccc(O)c2)[nH]1	.	.	.	.	1	3663	-8
O=C(CSc1ncnc2c1cnn2-c1ccc(F)cc1)NCc1ccc2c(c1)OCO2	8	3	5	2.9	-26	10787	-10
CCOC(=O)C(C)(C)n1nnc(-c2ccc([N+](=O)[O-])cc2)n1	3	3	-7	5.2	5	2545	-15
CCC(=O)NC(=S)Nc1ccc(NC(=O)c2ccco2)c(Cl)c1	.	.	-4	0.1	-5	3395	-19
Cc1nc(N=C(N)N)nc2c(C)cccc12	7	-1	4	-1.8	8	4881	-23
CCN(CC(=O)NC(=O)NC1CCCCC1)Cc1ccccc1	0	-6	9	3.8	11	?	-9
CC(OC(=O)C1CC(=O)N(Cc2ccco2)C1)C(=O)Nc1ccccc1[N+](=O)[O-] (centres undefined)	-7	-8	3	2.2	.	3657	-16
O=C(c1cccs1)N1CCC(c2nc3c(nnn3Cc3ccccc3Cl)c(=O)[nH]2)CC1	6	-5	31	1.6	9	3951	-33
Cc1cccc(NC(=O)N(Cc2cc3cc(C)cc(C)c3[nH]c2=O)CC2COCCO2)c1 (centres undefined)	-3	-7	-2	0.0	-2	11547	-14
N/C(Cc1ccc(Cl)cc1Cl)=N\OC(=O)c1ccc(Br)o1	12	8	4	6.6	-7	5121	-3
CN(C)C(=O)CCC(=O)N1CCCC(C(=O)c2ccc3c4c(cccc24)CC3)C1 (centres undefined)	11	3	4	-1.9	1	4624	-46
CC1CCC(NC(=O)COC(=O)CSc2ccc(C(N)=O)cc2[N+](=O)[O-])CC1 (centres undefined)	-1	0	11	4.7	7	.	-13
Cc1ccc(S(=O)(=O)N2CCc3ccccc3C2CN2C(=O)c3ccccc3C2=O)cc1 (centres undefined)	.	.	14	2.3	-2	2874	0
COc1ccccc1-c1nnc(SCC(=O)NC2CCCCC2)o1	.	.	6	4.1	-8	4188	76*
O=C(CCN1C(=O)[C@@H]2Cc3ccccc3CN2C1=O)N[C@@H](C(=O)O)c1ccccc1	.	.	-1	4.2	-2	5452	-11
O=C(CSc1nc(O)cc(=O)[nH]1)N1CCCc2ccccc21	-17	-5	-6	-1.6	-2	3717	-13
Cc1cc(C)n2nc(SCc3nnc(-c4ccc(F)cc4)o3)nc2n1	2	2	-68	5.8	-9	.	.
Cc1ccc(S(=O)(=O)CCC(O)c2ccc(Cl)cc2)cc1 (centres undefined)	1	-4	1	-0.5	-1	3848	-16
NC(=O)NOCc1c(Cl)cccc1Cl	5	5	1	2.5	-2	4080	1
Cc1c(C(=O)Nc2cccc(S(=O)(=O)N3CCOCC3)c2)oc2ccccc12	6	5	-7	-2.8	.	2758	-28
N=C1SCC(=O)N1/N=C/c1ccccc1	.	.	.	.	8	3714	-31

For reference, five of the compounds above:
SMILES	Mtb hypoxia inh	Mtb hypoxia inh growth	Sa ugtP lethal	Sa RN4220 lethal	BJeLR viability	Bead autofluor	PrP 5UTR inh
Cc1cc(C)n2nc(SCc3nnc(-c4ccc(F)cc4)o3)nc2n1	2	2	-68	5.8	-9	.	.
Cc1ccc(S(=O)(=O)CCC(O)c2ccc(Cl)cc2)cc1 (centres undefined)	1	-4	1	-0.5	-1	3848	-16
NC(=O)NOCc1c(Cl)cccc1Cl	5	5	1	2.5	-2	4080	1
Cc1c(C(=O)Nc2cccc(S(=O)(=O)N3CCOCC3)c2)oc2ccccc12	6	5	-7	-2.8	.	2758	-28
N=C1SCC(=O)N1/N=C/c1ccccc1	.	.	.	.	8	3714	-31
